# Screening results from PubChem BioAssay.
# UCH37 inh: human UCH37 deubiquitinating enzyme inhibition. 330,000 compounds, 0.33% hits. purified proteasome/UCH37, Ub-AMC cleavage fluorescence. Q9Y5K5. inhibition, % (concentration not given with the values);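 active = mean of two replicates above 20%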;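 also: 0% = compound-free wells with enzyme and 100% = wells lacking proteasome; stock transfer was 100 nL into about 20 µL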
# Target sequence (Q9Y5K5 whole entry, looked up): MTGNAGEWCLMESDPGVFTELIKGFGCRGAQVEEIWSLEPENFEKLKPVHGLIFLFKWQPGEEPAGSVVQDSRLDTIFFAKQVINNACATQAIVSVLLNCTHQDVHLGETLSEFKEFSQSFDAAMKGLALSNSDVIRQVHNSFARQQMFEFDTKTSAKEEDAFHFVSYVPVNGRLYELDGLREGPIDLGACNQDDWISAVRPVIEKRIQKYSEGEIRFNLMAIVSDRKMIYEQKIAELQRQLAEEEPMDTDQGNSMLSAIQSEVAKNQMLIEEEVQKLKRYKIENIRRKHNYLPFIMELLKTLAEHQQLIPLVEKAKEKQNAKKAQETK
#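 Material: human UCH37 enzyme supplied as purified proteasome complex / Amount: 0.15 nM proteasome as dispensed / Buffer or medium: pH 7.4 Tris-HCl (50 mM) with ovalbumin, ATP-MgCl2, DTT / Times: preincubation 30 min, reaction 25 min, room temperature / Technique: AMC fluorescence from Ub-AMC cleavage, excitation 355 nm, emission 460 nm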
# HNF4A DNA FP: change in binding of human HNF4 alpha to DNA; activity change, % at 10 µM; AID 1224865; 360,000 compounds, 0.3% hits; HNF4a-FITC DNA binding, fluorescence polarization, 1 h; in the data active = activity change above about 30%, passing the limit was not always enough;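 also: controls were the assay level and a saturating level of protein; the project sought stronger binding though the title names inhibitors; some compounds called inactive have numbers as strong as hits; positive values seem to mean higher polarization but the record does not say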
# Target sequence (P41235 whole entry, looked up): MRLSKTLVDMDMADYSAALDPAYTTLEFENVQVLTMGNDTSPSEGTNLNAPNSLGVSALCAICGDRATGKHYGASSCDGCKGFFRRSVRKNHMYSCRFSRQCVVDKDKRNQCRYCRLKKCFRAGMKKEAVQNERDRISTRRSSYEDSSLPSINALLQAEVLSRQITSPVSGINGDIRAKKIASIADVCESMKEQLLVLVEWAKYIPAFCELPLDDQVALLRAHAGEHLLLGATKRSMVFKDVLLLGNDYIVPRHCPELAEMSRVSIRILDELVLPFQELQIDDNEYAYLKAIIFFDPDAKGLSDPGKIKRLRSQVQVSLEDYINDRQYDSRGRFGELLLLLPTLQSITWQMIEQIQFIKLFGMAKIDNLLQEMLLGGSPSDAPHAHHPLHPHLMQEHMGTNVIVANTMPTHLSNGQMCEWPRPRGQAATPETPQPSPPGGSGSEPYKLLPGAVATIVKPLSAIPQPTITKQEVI
# ALR H2O2 inh: inhibitors of human sulfhydryl oxidase ALR | P55789 | purified ALR, DTT oxidation, H2O2 HRP-luminol luminescence | inhibition, % (no concentration beside the values) | 290,000 compounds, 3.8% hits | AID 485317;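 active = mean and each replicate at 75% or more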;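 also: stock transfer was 7.5 nL into about 7.5 µL; 0% = neutral wells and 100% = wells with inactivated enzyme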
# FGF22 binding: binders of recombinant human FGF22 by thermal shift; Q9HCT0; SYPRO orange fluorescence; percent of sucrose octasulfate shift, DMSO zero; calls only at 9.99 µM; 340,000 compounds, 1.5% hits;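 active = melting point raised past a set limit in the mean and every replicate; three in four hits are not shown here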
# Target sequence (Q9HCT0 whole entry, looked up): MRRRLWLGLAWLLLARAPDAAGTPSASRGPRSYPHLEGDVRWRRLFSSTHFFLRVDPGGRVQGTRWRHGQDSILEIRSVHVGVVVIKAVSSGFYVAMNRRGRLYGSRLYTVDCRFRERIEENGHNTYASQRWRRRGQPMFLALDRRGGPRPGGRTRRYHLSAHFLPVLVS
# Ecoli growth: inhibitors of Escherichia coli growth; OD600, 23 h; stronger effect = lower value; AID 1053175; 330,000 compounds, 0.21% hits; OD600 absorbance (test concentration not listed);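 active = OD600 absorbance below the run mean of sample wells minus 3.6 SD, in any replicate, cut at about 0.56 in these data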;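 also: stock transfer was 300 nL into about 60 µL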
# Beta2AR agonist: agonists of human beta-2 adrenergic receptor inducing internalization. P07550. Am2.2-beta2AR cells, FAP receptor internalization, flow cytometry; reference of the scale not given here. response, % (test concentration not listed). 340,000 compounds, 0.43% hits;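 active = response above a set limit, near 3 SD of response in nonfluorescent compounds, cut at about 42% in these data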;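 also: stock transfer was 100 nL into about 11 µL; a reference agonist was the positive control; negative values mostly stem from fluorescent compounds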
# Ecoli rRNA inh: inhibitors of bacterial rRNA selective over humanized ribosomes; E. coli WT GFP vs humanized-ribosome RFP mutants, fluorescence, 24 h; stronger effect = lower value; DMSO median 0, no signal -100; GFP signal change (wild-type ribosome), % (no concentration beside the values); AID 720706; 350,000 compounds, 1.6% hits;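 active = significant combined selectivity score with lowered wild-type GFP, culture density cut under 30%, mutant RFP and density less affected; inactive = any of these conditions unmet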; also: one replicate is shown; some compounds called inactive have numbers as strong as hits
# Ecoli rRNA inh OD600: also measured in Ecoli rRNA inh; calls as there; OD600 change, %; measured here: OD600 growth;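 optical density of the mix in the first replicate; 0 = DMSO median and -100 = no signal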
# Ecoli rRNA inh RFP: further read-out of Ecoli rRNA inh, marked with its call; RFP signal change, %; measured here: RFP humanized mutant strains;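 first replicate; 0 = DMSO median and -100 = no signal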
# * marks the source's active call; other numbers are inactive results; i = inactive; / = no result given.
SMILES,UCH37 inh,HNF4A DNA FP,ALR H2O2 inh,FGF22 binding,Ecoli growth,Beta2AR agonist,Ecoli rRNA inh,Ecoli rRNA inh OD600,Ecoli rRNA inh RFP
COc1cc(OC)cc(-c2c(-c3ccc(F)cc3)c3cc(-c4ccc(SC)cc4)ccc3n2C)c1,-13,4.7,17,i,0.7,-11,-2,1,-1.6
CSc1ccc(C2N=C(c3ccccc3)NO2)cc1 (stereo not drawn),5.6,-0.7,2,/,0.66,10,/,/,/
O=C(Nc1ccnn1C1CCN(C(=O)c2cnsn2)CC1)c1cccc(F)c1,0.1,2.2,-1,i,0.64,0,2,8,-1.4
NCC(=O)Nc1ccc(Br)cc1,-0.3,-0.5,12,i,0.7,1,11,0,5.3
CC[C@]12c3[nH]c4cc(-c5ccco5)ccc4c3CCN1C(=O)[C@@H](CC(=O)NCCCN(C)C)C[C@@H]2C(=O)N1CCN(C(=O)C2CC2)CC1,-10,0.3,/,i,0.73,-10,14,7,2.6
CCN(CC)S(=O)(=O)c1cc(Cl)ccc1OC,0.3,-0.9,-24,i,0.67,-5,-8,-29,-5.1
COCCNC(=O)NC(=O)CSc1nc(C)c(C)c(C)n1,-1.0,0.0,-1,i,0.7,-5,5,1,-5.2
CN(Cc1ccccc1)Cc1ccccc1C(O)c1ccccc1 (stereo not drawn),/,-0.9,/,i,/,0,-51,-74,-13
CCOc1ccc(CCNC(=O)CN2C(=O)NC3(CCc4ccccc43)C2=O)cc1OCC (stereo not drawn),-2.8,-3.9,-3,i,0.72,3,11,9,3.8
C/C(=N\NC(=O)c1ccc(Cl)cc1)c1ccc(N2CCOCC2)cc1,/,2.1,-1,i,/,0,9,5,-5.0
Cc1cccc(NC(=O)C(=O)C2C(=O)Nc3ccccc32)c1 (stereo not drawn),4.5,0.9,3,i,0.67,14,10,-1,-4.3
COc1ccc(Cl)cc1NC(=O)CSc1nc(=O)n(CCN(C)C)c2c1CCCC2,0.7,1.9,-7,i,0.7,4,6,3,7.0
O=c1c2cc(NC(=S)NC3CC3)ccc2nc2n1CCCCC2,5.6,3.1,/,i,0.72,-3,15,5,-1.1
CC1CCN(C(=S)NC(=O)c2ccc(F)cc2)CC1,1.3,5.9,3,i,0.69,2,-6,-11,-5.8
CC1(C(=O)Nc2ccc3[nH]ncc3c2)CCN1C(=O)CC(c1ccccc1)c1ccccc1 (stereo not drawn),/,1.1,/,i,/,/,-30,-47,-5.8
CC(C)N1C(=O)c2ccccc2NC(=O)C1C(=O)NCc1ccccc1 (stereo not drawn),/,-0.9,/,i,/,/,16,19,9.0
CSc1ncc(Cl)c(C(=O)Nc2cc(C)ccc2C)n1,-6.4,-0.6,-2,i,0.7,1,12,13,-0.4
CC(=O)Nc1nc(C)nc(-c2ccccc2)c1C(C)=O,3.6,-1.2,-6,/,0.73,2,/,/,/
CN(C)c1ccc(/C=N/NC(=O)C(O)c2ccc(Br)cc2)cc1 (stereo not drawn),/,-0.2,/,i,/,-4,-17,-15,0.6
Clc1ccc(Cn2cc(/C=N/n3cnnc3)c3ccccc32)cc1,/,4.7,-4,/,/,9,/,/,/
COc1ccc(OC)c(NC(=O)COC(=O)C2CCC2)c1,5.2,-0.4,2,i,0.66,-4,22,7,3.5
Nc1ccc(-c2nc3ncccc3o2)cc1,i,-1.4,/,i,0.65,-1,7,9,-0.9
Cc1ccc(C(=O)O)cc1S(=O)(=O)Nc1ccccc1C(=O)NC1CC1,-0.7,-6.2,/,i,0.68,6,1,7,-2.8
Cc1nn(CC(=O)Nc2ccc3c(c2)OCO3)c(C)c1Cl,4.0,3.4,-8,i,0.69,1,7,7,-0.6
CCOC(=O)C1(CCOc2ccccc2)CCN(Cc2ccc(OCC)c(CO)c2)CC1,/,-1.3,/,i,/,-10,-12,-9,3.0

# Other results follow:
SMILES,UCH37 inh,HNF4A DNA FP,ALR H2O2 inh,FGF22 binding,Ecoli growth,Beta2AR agonist,Ecoli rRNA inh,Ecoli rRNA inh OD600,Ecoli rRNA inh RFP
O=C(CCN1C(=O)C2CC=C(Cl)CC2C1=O)NC1CCCCC1 (stereo not drawn),-1.4,-4.9,-12,/,0.7,-5,/,/,/
Cc1ccc(N(CC(=O)NC2CCCCC2)C(=O)CNC(=O)c2cccs2)cc1,0.1,4.4,/,i,0.7,0,-3,-7,1.8
CCOc1ccc(N=CNc2ccc(OCC)cc2)cc1,3.0,-1.0,-5,i,0.66,-3,10,9,-3.8
CCCN1CN(c2ccccc2)C(=S)N(c2ccccc2)C1,5.4,1.1,-3,i,0.64,-5,23,7,2.7
CC1(C(=O)Nc2ccc(F)c(Cl)c2)Cc2c(-c3cccc(C(N)=O)c3)ccnc2O1 (stereo not drawn),/,-1.4,/,i,/,/,-23,-58,-3.7
COc1ccccc1NS(=O)(=O)c1ccc2c(c1)n(C)c(=O)n2C,0.7,2.6,-3,i,0.66,-1,5,-3,3.8
O=C(O)c1ccc(N=Cc2nc(-c3ccco3)oc2O)cc1,12,3.1,/,/,0.68,8,-4,-11,2.6
CCN(C[C@H]1N[C@@](C)(C(=O)OC)[C@H]2C(=O)N(Cc3ccccc3)C(=O)[C@@H]12)S(=O)(=O)c1ccc(C(C)(C)C)cc1,/,-5.8,/,i,/,-1,7,5,5.5
Clc1ccc(N2CCN(Cc3ccc(Br)o3)CC2)cc1,4.0,1.2,/,i,0.7,-5,5,7,3.4
COC(=O)c1ccc(C(=O)OC)c(NC(=O)CN(C)Cc2ccccc2)c1,-6.3,7.1,-1,i,0.71,6,9,0,3.4
COC(=O)c1[nH]c2cc(OC)c(OC)cc2c1NC(=O)CN1C[C@H]2C[C@@H](C1)c1cccc(=O)n1C2,-84,-2.1,6,i,0.69,-1,0,-2,0.3
Cc1ccsc1-c1cc(C(=O)O)c2c(ccc3ccccc32)n1,i,-1.7,48,i,0.68,5,-13,-16,0.8
Cc1cccc(NC(=S)NN2CCN(C)CC2)c1,3.9,-1.9,17,/,0.75,7,/,/,/
Cc1cccc2[nH]c(CN(C)C(=O)C3CCC(=O)N(CCc4ccccc4)C3)nc12 (stereo not drawn),2.4,12,1,i,0.66,0,5,4,1.6
Cc1cccc(/C=N/NC(=O)c2cc(C3CC3)nc3ccccc23)n1,/,2.5,2,i,/,11,-9,6,4.3
Cc1c(C(=O)N2CCOCC2)oc2ccc(S(=O)(=O)N3CCCC3)cc12,1.2,-0.6,3,/,0.71,4,/,/,/
CCc1ccc(CNC(=O)Cc2ccc(NC(=O)C3=C(C)OCCS3)cc2)cc1,/,-5.7,-2,i,/,10,8,10,7.4
COc1ccc(C(C(=O)NC2CCCC2)N(C(=O)c2snc(-c3ccc(F)cc3)c2N)c2cccc(F)c2)cc1 (stereo not drawn),-6.2,0.9,-15,/,0.77,8,/,/,/
CCOC(=O)C1CCN(c2c(N3CCCCCC3)c(=O)c2=O)CC1,8.6,3.1,-3,i,0.75,0,10,12,-0.6
Cc1ccc(NC(=O)C2CCCN(c3ncccn3)C2)cc1F (stereo not drawn),-2.0,-0.2,-2,/,0.63,-4,/,/,/
Cc1cc2occ(CC(=O)N(C)CC(=O)Nc3ccccc3Cl)c2cc1C,3.5,-2.7,-11,/,0.69,0,1,-2,0.1
O=C(NCCOc1ccccc1F)c1cccc(S(=O)(=O)N2CCN(c3ccccc3)CC2)c1,2.6,-3.3,2,i,0.64,-2,-4,15,6.4
COc1cccc(-n2nnnc2SCC(=O)Nc2ccc3c(c2)OCCO3)c1,2.9,1.1,-1,/,0.7,4,/,/,/
COc1ccc(-c2cccc(-c3nc4ccc(Cl)cn4c3NC3CCCCC3)c2)cc1,-62,5.9,-1,i,0.74,-12,-12,-39,-11
CCN1C(=O)Nc2cccc3cccc1c23,4.3,3.5,31,i,0.65,-4,-13,-18,-3.1

# Remaining list, next part:
SMILES,UCH37 inh,HNF4A DNA FP,ALR H2O2 inh,FGF22 binding,Ecoli growth,Beta2AR agonist,Ecoli rRNA inh,Ecoli rRNA inh OD600,Ecoli rRNA inh RFP
C=C(C)Cn1c(SCC(=O)NCc2ccco2)nc2sc3c(c2c1=O)CCC3,-2.7,0.8,-1,/,0.74,-9,/,/,/
CC1(C(=O)NC2CCCCC2)CCC(=O)N1CCOc1ccccc1 (stereo not drawn),/,4.9,/,i,/,/,-5,-8,-5.8
Cc1ccc(NC(=O)c2cc3nc(C)cc(C)n3n2)cc1,-4.6,0.9,/,/,0.7,-3,/,/,/
CCOc1ccc(C2=CSC3=NCCN23)cc1,1.7,2.6,56,i,0.65,-7,12,7,1.9
CCOc1ccc(Cc2nc(N)nc(N)n2)cc1,2.6,-2.4,-1,/,0.64,-1,/,/,/
Cn1c(SCC(=O)N2CCOCC2)nnc1-c1cccc(NC(=O)c2ccccc2F)c1,2.5,2.3,0,i,0.68,-4,8,0,-3.7
O=C(O)C1CC(=O)N(c2ccc(F)cc2)C1 (stereo not drawn),1.7,0.5,-10,/,0.74,-4,/,/,/
COCCN(CCOC)S(=O)(=O)NC[C@H]1O[C@@H](n2cnc3c(N)ncnc32)[C@H](O)[C@@H]1O,1.2,1.8,2,i,0.69,-5,18,5,2.5
CCOC(=O)N1CCN(C(=O)c2oc3ccc(S(=O)(=O)N4CCCCCC4)cc3c2C)CC1,1.4,5.5,-3,/,0.67,-2,/,/,/
COC(=O)CCCCC1SCC2NC(=O)NC21 (stereo not drawn),4.3,-0.2,-4,i,0.7,0,24,15,0.3
O=C(COC(=O)C12CC3CC(CC(O)(C3)C1)C2)NCCc1ccc(Cl)cc1,-0.3,-2.3,/,i,0.7,4,-20*,-11*,4.6*
CC(Sc1nnnn1C)C(=O)NC1CCCC1 (stereo not drawn),1.5,-1.7,-1,i,0.72,-7,13,8,0.6
COc1ccc(S(=O)(=O)N2CCCC(C(=O)O)C2)cc1Cl (stereo not drawn),0.9,1.3,/,/,0.79,-1,/,/,/
O=C(/C=C/NNC(=O)c1cccc(Br)c1)c1cccc(Br)c1,1.1,-3.9,-2,/,0.67,3,/,/,/
COc1ccc([C@@H]2[C@@H]3C(=O)N(C(C)(C)C)C(=O)[C@@H]3[C@]3(Cc4ccc(Cl)cc4)C(=O)N(c4ccc(C)cc4)C(=O)N23)cc1,1.7,-1.1,-4,i,/,0,13,18,3.2
O=C(Cn1cnc2sc3c(c2c1=O)CCCC3)NCC(=O)Nc1c(F)cccc1F,5.2,-1.8,1,i,0.7,-6,-1,10,-0.8
CC(CC(=O)Nc1ccc2c(c1)c(=O)n(C)n2-c1cccs1)c1ccccc1 (stereo not drawn),/,0.3,/,i,/,/,0,-6,-2.8
C[C@@H](N)C(=O)N[C@H]1CCC2C3CC=C4C[C@@H](O)CC[C@]4(C)C3CC[C@@]21C (stereo partly drawn),1.4,13,/,i,0.68,-6,-7,-6,6.5
O=C(CSc1nncc(=O)[nH]1)NC1CCCCC1,4.3,1.3,-4,i,0.71,-4,7,9,-1.6

# Arranged by heavy-atom count (rising): part of the list above
SMILES,UCH37 inh,HNF4A DNA FP,ALR H2O2 inh,FGF22 binding,Ecoli growth,Beta2AR agonist,Ecoli rRNA inh,Ecoli rRNA inh OD600,Ecoli rRNA inh RFP
CC(Sc1nnnn1C)C(=O)NC1CCCC1 (stereo not drawn),1.5,-1.7,-1,i,0.72,-7,13,8,0.6
CCOc1ccc(Cc2nc(N)nc(N)n2)cc1,2.6,-2.4,-1,/,0.64,-1,/,/,/
COCCN(CCOC)S(=O)(=O)NC[C@H]1O[C@@H](n2cnc3c(N)ncnc32)[C@H](O)[C@@H]1O,1.2,1.8,2,i,0.69,-5,18,5,2.5
COc1ccc([C@@H]2[C@@H]3C(=O)N(C(C)(C)C)C(=O)[C@@H]3[C@]3(Cc4ccc(Cl)cc4)C(=O)N(c4ccc(C)cc4)C(=O)N23)cc1,1.7,-1.1,-4,i,/,0,13,18,3.2

# This is a subset; rates above refer to the full screens.
